# MT1-MMP promoter: MT1-MMP gene expression reporter suppression – cell-based, luciferase reporter, luminescence (AID 618); MT1-MMP promoter luciferase reporter cells, luminescence; calls from a first round at 10 µM; hits with a dose series show EC50 in µM; 0.62% of 87,000 active;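 active = over half of the reporter light lost at 10 µM or EC50 under 50 µM; inactive = the rest and hits that failed the dose series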;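 note: actives suppress MT1-MMP promoter-driven transcription so potencies describe inhibitors; HT1080 fibrosarcoma cells; overnight exposure; toxic or luciferase-blocking compounds were not removed from the actives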
# Hsc70 ATP site: Hsc70 inhibitors, probe displacement, primary screen, biochemical, fluorescence polarization (AID 568). Hsc70 fluorescence polarization, probe displacement; higher % means a stronger effect; strong numbers were not always called active. displacement, % at 20 µM, or IC50 in µM where a hit was titrated. 83,000 tested, under 10 active;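 active = displacement above 50% without optical interference and an IC50 on retest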;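 note: ATPase domain with a fluorescein-tagged ATP probe; 0% = vehicle and 100% = excess ADP; read after one hour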
# WNV protease inh: blocks West Nile virus NS2B-NS3 protease activity; P06935; WNV NS2B-NS3 protease, fluorogenic substrate Ex360/Em465; stronger effect = lower value; z-score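 (tested at a level between 10 and 100 µM)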; 0.18% of 65,000 active; AID 577;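 active = z-score at -3 or under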;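 note: score is relative to mean and spread of the compound wells of a plate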
# Target sequence (P06935 1371-1501 limits assumed): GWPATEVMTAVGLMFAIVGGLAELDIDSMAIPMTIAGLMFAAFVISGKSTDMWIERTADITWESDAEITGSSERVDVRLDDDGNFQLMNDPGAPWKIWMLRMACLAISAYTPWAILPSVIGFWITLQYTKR
# Target sequence (P06935 1502-1679 limits assumed): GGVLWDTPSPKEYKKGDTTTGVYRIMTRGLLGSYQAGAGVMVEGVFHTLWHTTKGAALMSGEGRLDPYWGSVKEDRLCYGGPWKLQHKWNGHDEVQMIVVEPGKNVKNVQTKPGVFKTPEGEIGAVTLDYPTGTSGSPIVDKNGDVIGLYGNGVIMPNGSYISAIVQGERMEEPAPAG
# Starred values were filed as active, the others as inactive; i = inactive; . = no result given. No enrichment for hits (roughly 0.8% active in at least one column).
SMILES,MT1-MMP promoter,Hsc70 ATP site,WNV protease inh
N#Cc1ccc(NC(=O)CN2C(=O)NC(Cc3ccccc3)C2=O)cc1 (stereo not given),i,1.9%,-0.55
O=C(c1ccc(NS(=O)(=O)c2ccccc2)cc1)N1CCN(Cc2ccc3c(c2)OCO3)CC1,i,0.8%,-0.07
CCOC(=O)c1sc(NC(=O)CSc2ncn(-c3ccccc3)n2)nc1C,i,3.1%,-0.48
CCOc1ccc(N2C(=O)c3cccnc3C2=O)cc1,i,-4.0%,2.26
CC1=CCC2C(=O)N(c3nc(C)cc(C)n3)C(=O)C2C1 (stereo not given),i,12.7%,0.6
COc1cccc(C(=O)N2CCN(C3CCC(c4ccccc4)CC3)CC2)c1 (stereo not given),i,3.8%,0.95
CN1CCN(c2oc(-c3cccs3)nc2S(=O)(=O)c2ccccc2)CC1,i,2.8%,-0.7
Cc1ccc2nc(NC(=O)CCNS(=O)(=O)c3cccs3)sc2c1,i,3.2%,0.32
CCOC(=O)Cn1cc(C(=O)c2ccco2)c2ccccc21,i,-5.7%,1.35
Cc1nn(C(C)(C)C)c(OC(=O)c2ccc3c(c2)OCO3)c1Sc1ccccc1,i,-6.2%,.
CCCSc1nnc(CSc2nc3ccccc3s2)n1-c1ccccc1,i,-0.3%,.
Cc1ccc(-c2nn(C)c(=O)c3ccccc23)cc1CN1CCOCC1,i,6.7%,-0.24
O=C(Nn1c(O)c(C=C2N=c3ccccc3=N2)sc1=S)c1ccccc1Cl,i,0.2%,.
CCOc1cc(C(=O)OCC(=O)NCc2ccco2)cc(OCC)c1OCC,i,-2.2%,-1.1
COc1ccc2[nH]cc(C(=O)CN(C)CCc3ccc(OC)c(OC)c3)c2c1,i,-1.1%,1.1
COC(=O)c1ccc(NC(=O)C2CCCO2)cc1 (stereo not given),i,-0.3%,-0.01
CCOC(=O)c1c(C)[nH]c(C(=O)COC(=O)C(C)N2C(=O)C3CCCCC3C2=O)c1C (stereo not given),i,1.5%,.
O=C(NCC12CC3CC(CC(C3)C1)C2)c1cc2n(n1)C(C(F)(F)F)CC(c1ccco1)N2 (stereo not given),i,-2.3%,0.66
CCOC(=O)N1CCN(C(=O)CSCC(=O)Nc2nc(-c3ccc(OC)cc3)cs2)CC1,i,2.6%,-0.75
O=S(=O)(c1cccs1)N1CCN(CC(O)COc2cc(Cl)ccc2Cl)CC1 (stereo not given),i,9.9%,0.31
CCSc1nnc(NC(=O)c2ccccn2)s1,i,3.6%,2.82
CCOc1cc(-c2nc3cc(C)ccn3c2NCC2CCCO2)ccc1O (stereo not given),i,-0.8%,0.03
COc1ccc(OC)c2c(C)cc(NCCN3CCOCC3)nc12,i,8.4%,-0.91
CCC(C)c1ccc2oc(-c3ccc(NC(=O)c4ncn[nH]4)cc3)nc2c1 (stereo not given),i,7.0%,2.56
CCN1C(=O)c2cccc3c(NC(=O)c4ccc(S(=O)(=O)N5CCOCC5)cc4)ccc1c23,i,-2.9%,1.56
C=CCNc1nc(N2CCOCC2)c(C#N)c2c1CN(C)CC2,i,2.2%,-0.67
O=C(CN1CCCCCC1)Nc1ccc(F)c(F)c1,i,-3.4%,.
c1ccc(CCNc2nc3ccccc3s2)cc1,i,1.6%,.
CCOc1ccc(C(=O)OCn2nnc3ccccc3c2=O)cc1OC,i,2.5%,0.61
COc1cc(OC)c2c(N)c(C#N)c(C(F)(F)C(F)(F)F)nc2c1,i,-3.2%,.
COc1ccc2oc(=N)c(-c3nnc4n3CCCCC4)cc2c1,i,-3.7%,.
CC(C)C(c1nnnn1C1CCCC1)N1CCOCC1 (stereo not given),i,1.3%,.
CCOCCCNC(=O)c1[nH]c(C)c(C(C)=O)c1C,i,3.3%,-1.16
N#Cc1c(N)nc2c(c1-c1ccncc1)CCCCCC2,i,1.9%,-0.3
COc1ccc(-c2c(C)n([O-])c3c([n+]2=O)CCC3)cc1OC,i,2.0%,-0.24
O=C(Nc1ccc(Br)c(Cl)c1)c1ccco1,i,-4.5%,-0.15
O=c1c2ccccc2n(Cc2ccc(Cl)cc2)c(=O)n1Cc1ccco1,i,-6.3%,-1.58
COc1ccc2c(c1)C(=NN)c1cc(OC)ccc1-2,i,7.3%,.
Cc1ccc(/C(O)=C2\C(=O)C(=O)N(CCN(C)C)C2c2ccccc2F)cc1 (stereo not given),i,-6.2%,1.12
O=C(Nc1ccc(F)cc1F)N1CCCCC1c1cccnc1 (stereo not given),i,-0.5%,0.63
COc1ccc(Oc2c(C)oc3c(CN4CCOCC4)c(O)ccc3c2=O)cc1,i,-0.7%,.
O=C(Nc1ccc(N2CCN(C(=O)c3ccco3)CC2)c(Cl)c1)c1cccs1,i,-2.0%,3.29
CCOc1ccc(S(=O)(=O)N2CCN(c3ccccc3F)CC2)c2cccnc12,i,-0.4%,.
Cc1ccc(Nc2nc(N)nc(CN3CCN(Cc4ccc5c(c4)OCO5)CC3)n2)c(C)c1,i,3.1%,1.1
O=C(CSc1nnc2sc3ccccc3n12)N1CCN(c2ccccc2)CC1,i,3.3%,-0.32
CCN(CC)c1nc(C)c2c(c1C#N)CC(C)(C)OC2,i,5.0%,-1.87
O=C(O)CSC(NC(=O)c1cccnc1)(C(F)(F)F)C(F)(F)F,i,-0.5%,0.18
Cc1ccc(CN(C)CCc2ccccn2)cc1,i,-1.2%,0.97

# For convenience, 25 of the compounds above:
SMILES,MT1-MMP promoter,Hsc70 ATP site,WNV protease inh
CCSc1nnc(NC(=O)c2ccccn2)s1,i,3.6%,2.82
CCOc1cc(-c2nc3cc(C)ccn3c2NCC2CCCO2)ccc1O (stereo not given),i,-0.8%,0.03
COc1ccc(OC)c2c(C)cc(NCCN3CCOCC3)nc12,i,8.4%,-0.91
CCC(C)c1ccc2oc(-c3ccc(NC(=O)c4ncn[nH]4)cc3)nc2c1 (stereo not given),i,7.0%,2.56
CCN1C(=O)c2cccc3c(NC(=O)c4ccc(S(=O)(=O)N5CCOCC5)cc4)ccc1c23,i,-2.9%,1.56
C=CCNc1nc(N2CCOCC2)c(C#N)c2c1CN(C)CC2,i,2.2%,-0.67
O=C(CN1CCCCCC1)Nc1ccc(F)c(F)c1,i,-3.4%,.
c1ccc(CCNc2nc3ccccc3s2)cc1,i,1.6%,.
CCOc1ccc(C(=O)OCn2nnc3ccccc3c2=O)cc1OC,i,2.5%,0.61
COc1cc(OC)c2c(N)c(C#N)c(C(F)(F)C(F)(F)F)nc2c1,i,-3.2%,.
COc1ccc2oc(=N)c(-c3nnc4n3CCCCC4)cc2c1,i,-3.7%,.
CC(C)C(c1nnnn1C1CCCC1)N1CCOCC1 (stereo not given),i,1.3%,.
CCOCCCNC(=O)c1[nH]c(C)c(C(C)=O)c1C,i,3.3%,-1.16
N#Cc1c(N)nc2c(c1-c1ccncc1)CCCCCC2,i,1.9%,-0.3
COc1ccc(-c2c(C)n([O-])c3c([n+]2=O)CCC3)cc1OC,i,2.0%,-0.24
O=C(Nc1ccc(Br)c(Cl)c1)c1ccco1,i,-4.5%,-0.15
O=c1c2ccccc2n(Cc2ccc(Cl)cc2)c(=O)n1Cc1ccco1,i,-6.3%,-1.58
COc1ccc2c(c1)C(=NN)c1cc(OC)ccc1-2,i,7.3%,.
Cc1ccc(/C(O)=C2\C(=O)C(=O)N(CCN(C)C)C2c2ccccc2F)cc1 (stereo not given),i,-6.2%,1.12
O=C(Nc1ccc(F)cc1F)N1CCCCC1c1cccnc1 (stereo not given),i,-0.5%,0.63
COc1ccc(Oc2c(C)oc3c(CN4CCOCC4)c(O)ccc3c2=O)cc1,i,-0.7%,.
O=C(Nc1ccc(N2CCN(C(=O)c3ccco3)CC2)c(Cl)c1)c1cccs1,i,-2.0%,3.29
CCOc1ccc(S(=O)(=O)N2CCN(c3ccccc3F)CC2)c2cccnc12,i,-0.4%,.
Cc1ccc(Nc2nc(N)nc(CN3CCN(Cc4ccc5c(c4)OCO5)CC3)n2)c(C)c1,i,3.1%,1.1
O=C(CSc1nnc2sc3ccccc3n12)N1CCN(c2ccccc2)CC1,i,3.3%,-0.32

# Remaining list, next part
SMILES,MT1-MMP promoter,Hsc70 ATP site,WNV protease inh
O=C(Cc1c(C(=O)O)[nH]c2ccccc12)NCCN1CCN(c2ccccc2F)CC1,i,-7.4%,1.86
COc1ccc(-c2nc(C#N)c(N3CCN(c4ccccc4)CC3)o2)cc1,i,-4.7%,-0.13
NNC(=O)CCS(=O)(=O)c1ccc2ccccc2c1,i,0.5%,.
Cc1cc(C)n(C(=O)CNc2cccc(Cl)c2C)n1,i,-4.3%,0.61
Cc1cc(NC(=O)C2CC(=O)OC2c2ccccc2)no1 (stereo not given),i,5.9%,-0.68
N#Cc1c2c(c(NCc3cccnc3)n3c1nc1ccccc13)CCC2,i,4.6%,.
Cc1c(C)c2ccc(OCC(=O)N(C)C)c(C)c2oc1=O,i,3.3%,-0.11
CCOC(=O)C1CCN(c2c(NC3CCCCCCC3)c(=O)c2=O)CC1,i,-4.7%,-0.18
c1csc(-c2nc3c4ccccc4c4ccccc4c3[nH]2)c1,i,4.0%,.
COc1ccccc1CNC(=O)CCn1c(=O)oc2ccccc21,i,-0.3%,0.58
COc1ccc(OCc2nnc3n2N=C(c2ccc(OC)cc2)CS3)cc1,i,5.2%,-1.27
CCc1nc2c(sc3nc(N4CCOCC4)c4c(c32)CC(C)(C)OC4)c(=O)o1,i,-13.9%,-0.67
